Bioassay records (PubChem BioAssay)
Arbovirus inh: antivirals against arbovirus infection, primary screen, cell-based, full library, 10K replicate subset. arbovirus infection cell-based antiviral screen. inhibition, % at 10 µM. actives 0.37% (n = 200,000);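 active means inhibition from about 30%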;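 further: bluetongue infection of BSR cells; cell survival read as ATP light after 72 h; 0% = infected wells without compound and 100% = uninfected wells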
RecA intein inh: Mtb RecA intein splicing inhibitors, primary screen, biochemical, fluorescence, HTS. AID 2221, 2009. actives 0.75% (n = 290,000). inhibition, %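 (about 9 µM by stock and volumes)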. cell-free RecA intein splicing; in the data active means inhibition above about 30%; inconclusive means no clear call, values can overlap the other calls;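 further: 0% = vehicle wells and 100% = reference inhibitor control wells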
Target sequence (P9WHJ3 whole entry, looked up): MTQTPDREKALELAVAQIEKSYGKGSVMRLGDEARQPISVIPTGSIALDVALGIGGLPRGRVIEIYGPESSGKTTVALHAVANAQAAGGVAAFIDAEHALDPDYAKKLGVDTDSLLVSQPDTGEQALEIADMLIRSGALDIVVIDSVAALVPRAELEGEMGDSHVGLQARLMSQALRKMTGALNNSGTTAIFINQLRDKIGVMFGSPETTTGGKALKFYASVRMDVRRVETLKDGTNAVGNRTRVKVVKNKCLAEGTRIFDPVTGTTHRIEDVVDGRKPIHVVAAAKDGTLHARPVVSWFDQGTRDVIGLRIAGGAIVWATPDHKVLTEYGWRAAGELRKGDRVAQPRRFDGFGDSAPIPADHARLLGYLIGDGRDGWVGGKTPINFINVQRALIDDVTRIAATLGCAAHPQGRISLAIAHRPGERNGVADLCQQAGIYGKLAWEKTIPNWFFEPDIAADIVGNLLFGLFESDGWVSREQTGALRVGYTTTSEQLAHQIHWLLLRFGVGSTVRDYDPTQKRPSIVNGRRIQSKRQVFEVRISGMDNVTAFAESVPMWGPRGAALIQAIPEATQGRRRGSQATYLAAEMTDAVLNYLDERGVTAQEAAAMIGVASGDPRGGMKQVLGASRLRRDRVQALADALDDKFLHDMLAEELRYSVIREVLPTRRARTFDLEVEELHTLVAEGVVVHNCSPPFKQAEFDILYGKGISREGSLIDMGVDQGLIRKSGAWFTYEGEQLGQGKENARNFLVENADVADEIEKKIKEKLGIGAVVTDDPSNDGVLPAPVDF
Mtb bLac sens: beta-lactam sensitization of Mtb H37Rv, H37Rv; M. tuberculosis H37Rv growth with meropenem, percent inhibition; hits of this screen are not shown here; inhibition, % at 25 µM; actives 0.27% (n = 330,000); AID 434955, 2010;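 active means about 74% or more and at least 40 points above the plate without the antibiotic, then above 30% in a dose series; inconclusive means first-round hits that could not be retested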;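 further: growth measured after seven days incubation then overnight dye step; 0% = bacteria only wells and 100% = bacteria with antibiotic; twin plates without the antibiotic show which effects depend on it; some results filed as inactive read as strong as hits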
YopH inh: YopH tyrosine phosphatase inhibitors, primary screen, biochemical, fluorescence Ex485/Em525; YopH tyrosine phosphatase [Yersinia enterocolitica]; actives 0.16% (n = 140,000); inhibition, %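 (about 10 µM by stock and volumes)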;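 active means inhibition of 50% or more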;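 further: controls were vehicle for no effect and minimum signal wells for full effect; inactives centre near -20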
Mtb H37Rv: M. tuberculosis H37Rv growth inhibitors, H37Rv strain (AID 1626); M. tuberculosis H37Rv growth inhibition; higher % means a stronger effect; one-dose inhibition, % at 10 µM; IC50 in µM for titrated hits; actives 0.95% (n = 220,000);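 active means confirmed in a dose series; inconclusive means inhibition above 80% but not taken into the dose series; inactive means below 80% or under 30% at every dose of the series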;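 further: bacteria incubated seven days before Alamar blue readout; 0% = bacteria only wells and 100% = bacteria with antibiotic wells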
Arbovirus inh repeat: recorded beside Arbovirus inh, whose call it bears; inhibition, %; measured here: 10K subset replicate screen; many hits read low in the repeat;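 first of two repeat runs on a subset; 0% = infected and 100% = uninfected wells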
Starred values were filed as active, the others as inactive.

How did Nc1[nH][nH]c(=O)c1N=Nc1ccc2c(c1)OCO2 do in these assays?
Arbovirus inh: -26; Mtb bLac sens: 2; Mtb H37Rv: 1%

How did COc1ccc(NC(=O)Cc2csc(NC(=O)Nc3ccccc3OC)n2)c(OC)c1 do in these assays?
RecA intein inh: -2.2; Mtb bLac sens: 93

How did CC1CN(S(=O)(=O)c2cccs2)CC(C)O1 (centres undefined) do in these assays?
Arbovirus inh: -1; Mtb bLac sens: 4; YopH inh: 5; Mtb H37Rv: -7%

Results for Cc1nnc(SCC(=O)Nc2ccc3c(c2)OCCO3)n1CC1CCCO1 (centres undefined) ?
Arbovirus inh: -1; RecA intein inh: 2.7; Mtb bLac sens: -1; YopH inh: -138; Mtb H37Rv: -10%

Results for O=C(CCN1CCN(C/C=C/c2ccccc2)CC1)Nc1ccc(Cl)cc1 ?
Arbovirus inh: -15; RecA intein inh: 1.2; Mtb bLac sens: 0; YopH inh: 6; Mtb H37Rv: 9%

What do the screens show for `CCOc1ccc(CCNC(=O)COC(=O)c2nc(Cl)ccc2Cl)cc1OCC`?
RecA intein inh: 4.1; Mtb bLac sens: -2

How did COc1ccc(CCn2c(-c3ccco3)nc3ccccc3c2=O)cc1OC do in these assays?
Arbovirus inh: 4; RecA intein inh: -4.9; Mtb bLac sens: -22; YopH inh: -107; Mtb H37Rv: 0%; Arbovirus inh repeat: 1

What do the screens show for `CC(C)CNC(=O)COC(=O)CNC(=O)c1cc(Cl)cc([N+](=O)[O-])c1`?
Arbovirus inh: -3; RecA intein inh: -3.2; Mtb bLac sens: -5; YopH inh: -5; Mtb H37Rv: 29%

How did O=C(Cc1ccc(-n2c(=O)[nH]c3ccsc3c2=O)cc1)NCc1cccnc1 do in these assays?
Arbovirus inh: -9; RecA intein inh: 0.4; Mtb bLac sens: 2; YopH inh: -14; Mtb H37Rv: -6%

Results for COc1ccc(CC(=O)N2CCN(C(=O)c3ccco3)CC2)cc1 ?
Arbovirus inh: 4; RecA intein inh: -14; Mtb bLac sens: 4; YopH inh: 4; Mtb H37Rv: -6%

Results for O=c1c2ccccc2[nH]c(=S)n1CCCN1CCN(c2ccccc2F)CC1 ?
RecA intein inh: -0.2; Mtb bLac sens: 22

How did CC(CN1CCOCC1)c1ccccc1 (centres undefined) do in these assays?
Arbovirus inh: 9; RecA intein inh: -1.5; Mtb bLac sens: -4; YopH inh: -40; Mtb H37Rv: -9%

How did CCC(C)N(C(=O)COC(=O)c1ccccc1SCC(=O)N1CCCC1)C1CCS(=O)(=O)C1 (centres undefined) do in these assays?
RecA intein inh: -2.8; Mtb bLac sens: -9

What do the screens show for `COc1cc(NC(=O)CN2C(=O)NC(c3ccccc3)(c3ccccc3)C2=O)cc(OC)c1`?
RecA intein inh: 7.4; Mtb bLac sens: -1

How did Cn1c(=O)[nH]c(=O)c2[nH]c(NCCCN3CCOCC3)nc21 do in these assays?
Arbovirus inh: 0; RecA intein inh: -5.8; Mtb bLac sens: -16; YopH inh: -19; Mtb H37Rv: -8%

Results for C=C(CO)CC1CC(O)[C@]2(C)OC3CC4OC5C[C@]6(C)O[C@]7(C)CCC8OC9C[C@]%10(C)OC%11C(C)=CC(=O)OC%11CC%10OC9C[C@@H](C)C8OC7CC6O[C@]5(C)C/C=C\C4OC3CC2O1 (some centres undefined) ?
Arbovirus inh: 4; RecA intein inh: -5.5; Mtb bLac sens: -2; Mtb H37Rv: 6%

What do the screens show for `Cc1ccc(Cn2nnnc2CN2CCC(NC(=O)c3ccc(Br)cc3)CC2)cc1`?
Arbovirus inh: -14; RecA intein inh: -1.0; Mtb bLac sens: -3; YopH inh: -25; Mtb H37Rv: 2%

How did C=CCc1c(C)nc(-c2ccccc2)nc1Nc1ccccc1O do in these assays?
Arbovirus inh: -3; RecA intein inh: -1.6; Mtb bLac sens: 7; YopH inh: -36; Mtb H37Rv: 24%

How did CC(=O)c1ccc(-c2ccccc2)cc1 do in these assays?
Arbovirus inh: 0; RecA intein inh: 1.1; Mtb bLac sens: 3; YopH inh: -18; Mtb H37Rv: 12%

How did O=S(=O)(c1ccc(F)c(F)c1)N1CCC2(CC1)OCCO2 do in these assays?
RecA intein inh: -2.5; Mtb bLac sens: -12

Results for O=S(=O)(Cc1ccccc1)c1cnc2ccccc2n1 ?
Arbovirus inh: 4; RecA intein inh: 30*; YopH inh: 10; Mtb H37Rv: 7%

What do the screens show for `CCCc1cc(=O)[nH]c(SCC(=O)NC2CCCc3ccccc32)n1` (centres undefined)?
RecA intein inh: -1.3; Mtb bLac sens: 30; Mtb H37Rv: 28%

How did COC(=O)Cn1nc(-c2ccccc2)n(-c2ccccc2)c1=S do in these assays?
Arbovirus inh: 8; RecA intein inh: -1.5; Mtb bLac sens: -2; YopH inh: 6

How did O=C(COC(=O)c1cnccn1)NCc1ccc2c(c1)OCO2 do in these assays?
Arbovirus inh: 3; RecA intein inh: -0.9; Mtb bLac sens: 5; Mtb H37Rv: 1%

How did COc1cc(CNCCc2ccccc2F)ccc1OCC(=O)N1CCCCC1 do in these assays?
Arbovirus inh: -1; RecA intein inh: -0.1; Mtb bLac sens: -6; Mtb H37Rv: 2%

What do the screens show for `COc1ccc(NC(=O)c2cc(OC)c(OC)c(OC)c2Br)cc1OC`?
Arbovirus inh: 5; RecA intein inh: 0.8; Mtb bLac sens: 5; YopH inh: -10; Mtb H37Rv: -2%

How did Cc1ccc2oc(C(=O)N(CCO)Cc3ccccc3)c(C)c2c1 do in these assays?
RecA intein inh: 1.3; Mtb bLac sens: -6

What do the screens show for `CC1CCCN(C(=O)CSc2nnc3n(C4CCCC4)c(=O)c4ccccc4n23)C1` (centres undefined)?
Arbovirus inh: 6; RecA intein inh: -2.9; Mtb bLac sens: inconclusive; YopH inh: -19; Mtb H37Rv: 9%

Results for COn1c(=O)c(-c2ccc(F)cc2)[n+]([O-])c2ccccc21 ?
RecA intein inh: 0.2; Mtb bLac sens: 1

What do the screens show for `O=C(CCCN1C(=O)c2cccc3cccc(c23)C1=O)N1CCN(c2ccc(F)cc2)CC1`?
Arbovirus inh: -9; RecA intein inh: 2.5; Mtb bLac sens: 4; Mtb H37Rv: -4%

Results for CCOC(=O)C1CCN(CCCSc2ccc(Cl)cc2)CC1 ?
RecA intein inh: 0.4; Mtb bLac sens: 0

How did CCOc1ccc(N(C(C)C(=O)NC2CCCCCC2)S(C)(=O)=O)cc1 (centres undefined) do in these assays?
Arbovirus inh: 11; RecA intein inh: 0.3; Mtb bLac sens: -6; YopH inh: 1; Mtb H37Rv: -1%; Arbovirus inh repeat: 8

Results for CCOCCCNC(=O)CN1C(=O)/C(=C/c2ccccc2)Sc2ccccc21 ?
Arbovirus inh: 4; RecA intein inh: -16; Mtb bLac sens: -8; YopH inh: -16; Mtb H37Rv: 1%

What do the screens show for `CN(c1ccccc1)S(=O)(=O)c1cccc(C(=O)OCC(=O)NCc2ccc3c(c2)OCO3)c1`?
Arbovirus inh: 13; RecA intein inh: 3.9; Mtb bLac sens: -5; YopH inh: -11; Mtb H37Rv: -1%

How did Cc1cnn(-c2cc(N/N=C/c3ccc(F)cc3)ncn2)c1 do in these assays?
Arbovirus inh: -16; RecA intein inh: -2.5; Mtb bLac sens: -3; YopH inh: -31; Mtb H37Rv: 1%

How did COc1ccccc1NC(=S)NC(=O)/C=C/c1cccs1 do in these assays?
Arbovirus inh: -6; RecA intein inh: 3.3; Mtb bLac sens: -4; Mtb H37Rv: 7%

How did COc1ccc(NC(=O)Cn2nnc(C(=O)NCc3cccs3)c2N)c(OC)c1 do in these assays?
RecA intein inh: -0.8; Mtb bLac sens: 4

How did O=C(O)c1cc(N/N=C/C=C/c2ccccc2[N+](=O)[O-])ccc1Cl do in these assays?
RecA intein inh: -0.6; Mtb bLac sens: 10; Mtb H37Rv: 12%

How did CCCOc1cccc(-c2cc(C(=O)NN)c3ccccc3n2)c1 do in these assays?
Arbovirus inh: -19; RecA intein inh: 12; Mtb bLac sens: 7; YopH inh: -1; Mtb H37Rv: 9%

How did COc1ccc(Cl)cc1NC(=O)CN1C(=O)CCS(=O)(=O)c2ccccc21 do in these assays?
Arbovirus inh: 5; RecA intein inh: 1.9; YopH inh: -5; Mtb H37Rv: 1%

Results for Cc1cccc(C)c1NC(=O)CN(C)C(=O)C1CCN(c2ncnc3sc(C)c(C)c23)CC1 ?
RecA intein inh: -0.3; Mtb bLac sens: -6

How did CN1CCN(C(=O)C2=C[C@H](c3ccc(Br)cc3)C[C@H](OCCCCO)O2)CC1 do in these assays?
Arbovirus inh: 2; RecA intein inh: 0.7; Mtb bLac sens: -2; Mtb H37Rv: 7%

How did C/C(Cn1cnc([N+](=O)[O-])n1)=N\NC(=O)c1ccc(F)cc1 do in these assays?
Arbovirus inh: -3; RecA intein inh: 3.6; Mtb bLac sens: -6; YopH inh: -12; Mtb H37Rv: -11%

What do the screens show for `CSCCC(NC(=O)c1ccccc1Br)C(=O)N1CCC(C)CC1` (centres undefined)?
Arbovirus inh: 5; RecA intein inh: -0.3; Mtb bLac sens: 35; Mtb H37Rv: 4%

What do the screens show for `C/C(=N\NC(=O)c1nnn(-c2nonc2N)c1-c1ccccc1)c1ccccc1O`?
RecA intein inh: -2.6; Mtb bLac sens: 10

How did C/C(CC(=O)Nc1c(C)cc(C)cc1C)=N\NC(=O)OC(C)(C)C do in these assays?
Arbovirus inh: 1; RecA intein inh: -6.9; Mtb bLac sens: -7; YopH inh: -32; Mtb H37Rv: -8%

How did CCSc1nnc(NC(=O)c2cc(-c3ccccc3O)n[nH]2)s1 do in these assays?
RecA intein inh: -2.5; Mtb bLac sens: 1; Mtb H37Rv: -4%

What do the screens show for `CCCCOc1ccc(Cl)cc1Nc1nc(NCCO)nc(N2CCCC2)n1`?
RecA intein inh: 9.5; Mtb bLac sens: -3; Mtb H37Rv: 2%

What do the screens show for `COc1ccc(C2=NN3C(=O)c4c(ccc(OC)c4OC)C3C2)cc1` (centres undefined)?
Arbovirus inh: -4; RecA intein inh: -1.7; Mtb bLac sens: 65; YopH inh: -32; Mtb H37Rv: 0%

What do the screens show for `COC(=O)c1ccccc1NCCO`?
RecA intein inh: -3.4; Mtb bLac sens: 3; Mtb H37Rv: -4%

Results for CC(=O)c1ccc(S(=O)(=O)N2CCC(NC(=O)c3ccccc3)CC2)cc1 ?
RecA intein inh: -3.4; Mtb bLac sens: -6

Results for CN(CC(=O)N1CCN(c2ccc(F)cc2)CC1)S(=O)(=O)c1ccc(F)cc1 ?
Arbovirus inh: -7; RecA intein inh: -0.3; Mtb bLac sens: 0; YopH inh: -47; Mtb H37Rv: -7%

What do the screens show for `CC1=CC2=NC(=O)/C(=C\c3ccc(-c4ccc(Cl)cc4)o3)C(=N)N2O1`?
Arbovirus inh: -10; YopH inh: -8; Mtb H37Rv: inconclusive

What do the screens show for `CCCC(=O)Nc1ccc(C(=O)NCCc2ccc(F)cc2)cc1`?
Arbovirus inh: -2; RecA intein inh: -12; Mtb bLac sens: -4; YopH inh: -8; Mtb H37Rv: 5%

Results for Cc1ccc(CN2CC(C(=O)N(C)CC(=O)Nc3cccc(F)c3)CC2=O)cc1 (centres undefined) ?
RecA intein inh: 0.4; Mtb bLac sens: -4

What do the screens show for `O=[N+]([O-])c1cccc(-c2noc(-c3cccs3)n2)c1`?
RecA intein inh: 0.7; Mtb bLac sens: 2; Mtb H37Rv: 1%

Results for CCc1ccc(NC(=O)CSc2nnc(CNC(=O)c3cccs3)o2)cc1 ?
RecA intein inh: -3.2; Mtb bLac sens: 39

Results for COc1ccc(-c2nnc(SCC(=O)NC(C)c3ccccc3)o2)cc1 (centres undefined) ?
Arbovirus inh: 5; RecA intein inh: 0.8; Mtb bLac sens: inconclusive; YopH inh: -21; Mtb H37Rv: -14%; Arbovirus inh repeat: 1

Structures shown so far containing a nitro group on carbon, in the order listed:
What do the screens show for `CC(C)CNC(=O)COC(=O)CNC(=O)c1cc(Cl)cc([N+](=O)[O-])c1`?
Arbovirus inh: -3; RecA intein inh: -3.2; Mtb bLac sens: -5; YopH inh: -5; Mtb H37Rv: 29%

How did O=C(O)c1cc(N/N=C/C=C/c2ccccc2[N+](=O)[O-])ccc1Cl do in these assays?
RecA intein inh: -0.6; Mtb bLac sens: 10; Mtb H37Rv: 12%

How did C/C(Cn1cnc([N+](=O)[O-])n1)=N\NC(=O)c1ccc(F)cc1 do in these assays?
Arbovirus inh: -3; RecA intein inh: 3.6; Mtb bLac sens: -6; YopH inh: -12; Mtb H37Rv: -11%

What do the screens show for `O=[N+]([O-])c1cccc(-c2noc(-c3cccs3)n2)c1`?
RecA intein inh: 0.7; Mtb bLac sens: 2; Mtb H37Rv: 1%

An excerpt; rates above refer to the full screens.
